Source: PubChem BioAssay
TSHR ag = qHTS Assay for Agonists of the Thyroid Stimulating Hormone Receptor; Thyrotropin receptor (Homo sapiens), P16473; HEK293-CNG-TSHR cells (CNG channel as cAMP sensor), membrane potential dye, cAMP; Potency, µM (series often up to 57.1 µM), for the others: top-dose activation, actives largely listed as activators; 0.48% of 73,000 active; active = well fitted activation curve of enough size with the parental cells flat; inconclusive = any curve in the parental cells; inactive = parental cells flat and receptor cells flat or falling; further: potency means the concentration at half of the fitted maximal effect; % of control where 0% means no effect; weak receptor curves with flat parental cells got no call and are not listed
Target sequence (P16473 whole entry, looked up): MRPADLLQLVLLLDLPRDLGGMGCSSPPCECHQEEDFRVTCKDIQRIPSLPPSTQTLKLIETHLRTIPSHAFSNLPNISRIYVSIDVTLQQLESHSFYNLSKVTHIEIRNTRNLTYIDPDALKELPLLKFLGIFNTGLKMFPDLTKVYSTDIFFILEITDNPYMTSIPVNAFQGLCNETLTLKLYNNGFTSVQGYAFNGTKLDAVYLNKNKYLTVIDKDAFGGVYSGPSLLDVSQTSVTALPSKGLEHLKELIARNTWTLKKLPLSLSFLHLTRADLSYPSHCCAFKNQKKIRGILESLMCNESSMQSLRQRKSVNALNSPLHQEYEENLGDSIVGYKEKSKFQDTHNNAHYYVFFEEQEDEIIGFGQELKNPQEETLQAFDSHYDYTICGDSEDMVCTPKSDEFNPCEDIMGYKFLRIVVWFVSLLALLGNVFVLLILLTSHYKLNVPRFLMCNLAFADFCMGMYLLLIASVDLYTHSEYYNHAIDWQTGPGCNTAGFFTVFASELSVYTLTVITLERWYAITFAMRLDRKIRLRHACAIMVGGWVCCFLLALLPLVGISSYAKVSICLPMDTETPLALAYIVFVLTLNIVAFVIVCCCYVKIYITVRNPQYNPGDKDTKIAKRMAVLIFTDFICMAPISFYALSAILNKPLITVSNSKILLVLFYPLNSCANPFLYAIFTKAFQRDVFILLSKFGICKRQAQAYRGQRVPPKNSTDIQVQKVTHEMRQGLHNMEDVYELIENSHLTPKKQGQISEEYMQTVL
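cAMP rise detected as CNG-channel membrane depolarization by fluorescent dye (emission 590 nm), 30 min after compound, following 60 min dye loading containing 100 uM RO 20-1724 at room temperature. Cells: TSHR/CNG HEK 293, with parental CNG HEK 293 as control.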
A488 autofl = qHTS Assay for Spectroscopic Profiling in A488 Spectral Region | compound autofluorescence, A488 spectral region, dye equivalency; hits give high values | max dye equivalency, M | AID 591, 2007 | 0.1% of 59,000 active; active = above 10 nM dye equivalent; inconclusive = 1 to 10 nM; inactive = 1 nM or less; about half of its hits are not listed in these tables;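 further: highest value over a series up to 38 µM; compound alone in buffer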
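Intrinsic compound fluorescence is measured in 100 mM Tris buffer at pH 8.0 following 15 min incubation at room temperature. Intensities at 480 nm excitation/540 nm emission are calibrated to an on-plate A488 concentration series, giving dye-equivalent concentrations.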
A647 fluor = qHTS Assay for Spectroscopic Profiling in A647 Spectral Region. 59,000 tested, under 10 active. Compound fluorescence, A647 channel (570/671 nm), Tris buffer. max dye-equivalent concentration, M; active means above 1 µM dye equivalent; inconclusive means 0.1 to 1 µM; inactive means 0.1 µM or less;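 further: values scaled relative to a standard on each plate; highest value over a series up to 38 µM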
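Buffer was dispensed, compounds and Alexa 647 standards were pin-transferred, and plates sat 15 min at room temperature. Intensity at 570/671 nm was then converted to dye-equivalent concentration using the plate's A647 standard curve.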
Resorufin autofl = qHTS Assay for Spectroscopic Profiling in Resorufin Spectral Region; Compound fluorescence, resorufin region 547/598 nm, buffer; hits give high values; max dye-equivalent concentration, M; AID 588, 2007; 0.04% of 59,000 active; active = above 10 nM dye equivalent; inconclusive = 1 to 10 nM; inactive = 1 nM or less; a few of its hits are not listed in these tables; further: highest value over a series up to 38 µM
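Read-out: intrinsic compound fluorescence at ex 547/em 598 nm after 15 min at RT in pH 8.0 Tris (100 mM). Values expressed as resorufin-equivalent concentration from per-plate standard series.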
AID923 = qHTS Assay for Allosteric/Competitive Inhibitors of Caspase-1: Spectroscopic Profiling in AFC Spectral Region; compound fluorescence, AFC spectral region (405/520 nm); almost no hit is shown here; Potency, µM (titrated, usually from 57.5 µM), inactives show top-dose fluorescence increase, usual class: activators; 1.1% of 75,000 active; AID 923, 2007; active means well fitted activation curve with a large enough effect; inconclusive means small, poorly fitted or top-dose-only effect;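 further: potency means the concentration at half of the fitted maximal effect; 0% is about no effect; scaled to a free AFC standard on each plate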
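Baseline compound fluorescence (AFC region, 405 nm ex/520 nm em) taken from the intercept of kinetic reads with 50 nM caspase-1 and 5 uM Ac-WEHD-AFC; normalized to an on-plate AFC standard curve; compounds titrated up to 57 uM.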
* = called active by the depositor.

`Cc1cc(Cl)ccc1OCC(=O)OC(C)C(=O)N(C)C` (centres undefined) gave A488 autofl inactive, A647 fluor 2.6e-08 and Resorufin autofl inactive.
For COc1ccc(S(=O)(=O)N2CCCC(C(=O)NCc3ccccn3)C2)cc1 (centres undefined) the results were TSHR ag 7%, A488 autofl inactive, A647 fluor 3.6e-08, Resorufin autofl inactive and AID923 -2.3%.
c1ccc(-c2noc(-c3cccs3)n2)nc1 was read as TSHR ag -5% and AID923 2.6%.
For COc1ccc(OCC(O)Cn2c(=N)n(Cc3ccccc3)c3ccccc32)cc1 (centres undefined) the results were TSHR ag inconclusive, A488 autofl inactive, A647 fluor 6.9e-09, Resorufin autofl inactive and AID923 -1.7%.
COC(=O)c1c(NC(=O)CN2CCCC(C)C2)c2c(C)cccc2n1C (centres undefined) was read as TSHR ag inconclusive, A488 autofl inactive, A647 fluor 1e-09, Resorufin autofl inactive and AID923 -0.6%.
For CCN(Cc1ccccc1)C(c1cccs1)c1nnnn1C1CCCCC1 (centres undefined) the results were TSHR ag inconclusive, A488 autofl inactive, A647 fluor 1.6e-08, Resorufin autofl inactive and AID923 -0.5%.
Screening CC1(C)Cc2cccc(OCC(=O)N3CCN(S(=O)(=O)c4ccccc4)CC3)c2O1 returned TSHR ag 3%, A488 autofl inactive, A647 fluor 3.6e-09, Resorufin autofl inactive and AID923 0.4%.
`CCOc1ccc(C2c3c(oc4ccccc4c3=O)C(=O)N2CCCN2CCOCC2)cc1` (centres undefined) gave TSHR ag 3%, A488 autofl inactive, A647 fluor 1e-09, Resorufin autofl inactive and AID923 3.5%.
COCCN1C(=O)C(=O)/C(=C(/O)c2ccc(OC(C)C)cc2)C1c1cccnc1 (centres undefined) was read as TSHR ag -8%, A488 autofl inactive, A647 fluor 2.8e-08, Resorufin autofl inactive and AID923 -1.2%.
For CC(=O)N1CCC2(CC1)CCN(c1ccccc1)CC2 the results were TSHR ag -3%, A488 autofl inactive, A647 fluor 2.1e-08, Resorufin autofl inactive and AID923 0.4%.
CCOC(=O)COc1nc(C)c(Br)c(OC)n1 was read as TSHR ag inconclusive, A488 autofl inactive, A647 fluor 2.3e-09, Resorufin autofl inactive and AID923 2.8%.
`Cc1cc2cc(CN(Cc3ccc4c(c3)OCO4)C(=O)c3ccco3)c(=O)[nH]c2cc1C` gave TSHR ag inconclusive, A488 autofl inactive, A647 fluor 1.2e-08, Resorufin autofl inactive and AID923 1.8%.
For COc1cc2c(cc1OC)-c1nnnn1C(C)(C)C2 the results were TSHR ag 20%, A488 autofl inactive, A647 fluor 7.3e-09, Resorufin autofl inactive and AID923 -0.9%.
`Cc1nnc(SCc2cccc(Oc3ccccc3)c2)n1N` gave TSHR ag 5%, A488 autofl inactive, A647 fluor 2.8e-09, Resorufin autofl inactive and AID923 0.5%.
`CCOC(=O)N1CCC(NC(=O)C2CCCCN2S(=O)(=O)c2ccc(F)cc2)CC1` (centres undefined) gave TSHR ag -1% and AID923 -3.5%.
`Brc1ccc(OCCOCCN2CCOCC2)cc1` gave TSHR ag 25µM* and AID923 1.6%.
Nn1c(Cc2cccc3ccccc23)nnc1SCC(=O)NC1CCS(=O)(=O)C1 (centres undefined) was read as TSHR ag -2%, A488 autofl inactive, A647 fluor 7.2e-09, Resorufin autofl inactive and AID923 -1.9%.
COc1ccccc1C1CC(=O)NC(C)=C1C(=O)OCC1CCCO1 (centres undefined) was read as TSHR ag 1%, A488 autofl inactive, A647 fluor 2.7e-08, Resorufin autofl inactive and AID923 1.7%.
Cc1ccc(NC(=O)CSc2nnc(-c3ccncc3)n2C)cc1C was read as A488 autofl inactive, A647 fluor 8.4e-09, Resorufin autofl inactive and AID923 -2.4%.
`Cc1cc(/N=C/C=C2\N(C)c3ccccc3C2(C)C)n(CCC#N)n1` gave TSHR ag -1%, A488 autofl inactive, A647 fluor 4.4e-09, Resorufin autofl inactive and AID923 4.4%.
`O=C(COc1ccc(S(=O)(=O)N2CCCC2)cc1Cl)N1CCN(c2ccccc2)CC1` gave TSHR ag -5%, A488 autofl inactive, A647 fluor 1.9e-09, Resorufin autofl inactive and AID923 -1.9%.
`COc1cc2c(cc1OC)C(c1ccsc1)CC(=O)N2` (centres undefined) gave TSHR ag 1%, A488 autofl inactive, A647 fluor 1e-09, Resorufin autofl inactive and AID923 -1.0%.
`CCCSc1nnc(Cn2c(=O)sc3ccccc32)n1-c1ccccc1` gave TSHR ag 17% and AID923 -1.6%.
`CCCCN1CC(COc2ccccc2)OC1=O` (centres undefined) gave TSHR ag -2%, A488 autofl inactive, A647 fluor 1e-09, Resorufin autofl inactive and AID923 1.7%.
COc1ccc(CCNC(=O)CSc2cc(=O)[nH]c(N)n2)cc1OC was read as TSHR ag -11%, A488 autofl inactive, A647 fluor 1e-09, Resorufin autofl inactive and AID923 -0.8%.
CC(C)c1nc2oc3c(NCc4ccccn4)ncnc3c2c2c1COC(C)(C)C2 was read as TSHR ag -1%, A488 autofl inactive, A647 fluor 2.9e-08, Resorufin autofl inactive and AID923 -0.8%.
`COc1ccccc1NC(=O)CCC(=O)Nc1ccccc1OC` gave TSHR ag 0%, A488 autofl inactive, A647 fluor 2.5e-08, Resorufin autofl inactive and AID923 -0.9%.
CCc1nc2sc3c(c2c(=O)o1)CCCC3 was read as A488 autofl inactive, A647 fluor 1e-09 and Resorufin autofl inactive.
Screening Nc1c(NCCCN2CCOCC2)c2ccccc2oc1=O returned A488 autofl inactive, A647 fluor 4.2e-09, Resorufin autofl inactive and AID923 4.2%.
CCOC(=O)C1CCN(S(=O)(=O)c2cnc[nH]2)CC1 was read as TSHR ag -2%, A488 autofl inactive, A647 fluor 1e-09, Resorufin autofl inactive and AID923 1.0%.
Screening Nn1c(SCC(=O)Nc2ccc3c(c2)OCO3)nnc1C1CCCCC1 returned TSHR ag 3%, A488 autofl inactive, A647 fluor 1e-09, Resorufin autofl inactive and AID923 -1.5%.
Screening COCCCNC(=O)CS(=O)Cc1nc(-c2ccccc2C)oc1C (centres undefined) returned TSHR ag 3% and AID923 0.3%.
Cn1c(=O)c2cc(NC(=O)c3ccccc3Cl)c(=O)oc2n(C)c1=O was read as TSHR ag 1%, A488 autofl inactive, A647 fluor 1.8e-08, Resorufin autofl inactive and AID923 -1.0%.
Cn1c(CNc2ccccc2O)nc2ccccc21 was read as TSHR ag -11% and AID923 -1.4%.
Screening CC(C)COc1ccc(C(=O)OCCN2CCOCC2)cc1 returned TSHR ag 12%, A488 autofl inactive, A647 fluor 1e-09, Resorufin autofl inactive and AID923 -0.3%.
CC1CCN(C(=O)Nc2cccc(NC(=O)N3CCC(C)CC3)c2)CC1 was read as TSHR ag -3%, A488 autofl inactive, A647 fluor 1e-09, Resorufin autofl inactive and AID923 -1.4%.
For CC(=O)N1CCN(c2ccc(NC(=O)c3ccc4c(c3)OCCO4)cc2)CC1 the results were TSHR ag -4%, A488 autofl inactive, A647 fluor 7e-09, Resorufin autofl inactive and AID923 0.7%.
CCC1(C)Cc2c(sc3nc(NC)n(C)c(=O)c23)CO1 (centres undefined) was read as TSHR ag -6%, A488 autofl inactive, A647 fluor 2.4e-08, Resorufin autofl inactive and AID923 -0.8%.
`Cn1c(=O)c2c(-c3ccccc3)n(N3CCOCC3)cc2n(C)c1=O` gave TSHR ag -1%, A488 autofl inactive, A647 fluor 1e-09, Resorufin autofl inactive and AID923 3.3%.
Screening C=CCn1c(SCC(=O)Nc2ccc3c(c2)OCO3)nnc1-c1ccccc1O returned TSHR ag 15%, A488 autofl inactive, A647 fluor 1e-09, Resorufin autofl inactive and AID923 -3.0%.

Four compounds drawn at random from those above:
COc1ccccc1C1CC(=O)NC(C)=C1C(=O)OCC1CCCO1 (centres undefined) was read as TSHR ag 1%, A488 autofl inactive, A647 fluor 2.7e-08, Resorufin autofl inactive and AID923 1.7%.
For COc1ccc(OCC(O)Cn2c(=N)n(Cc3ccccc3)c3ccccc32)cc1 (centres undefined) the results were TSHR ag inconclusive, A488 autofl inactive, A647 fluor 6.9e-09, Resorufin autofl inactive and AID923 -1.7%.
`COc1cc2c(cc1OC)C(c1ccsc1)CC(=O)N2` (centres undefined) gave TSHR ag 1%, A488 autofl inactive, A647 fluor 1e-09, Resorufin autofl inactive and AID923 -1.0%.
For CC(=O)N1CCC2(CC1)CCN(c1ccccc1)CC2 the results were TSHR ag -3%, A488 autofl inactive, A647 fluor 2.1e-08, Resorufin autofl inactive and AID923 0.4%.

Structural class: the compounds so far with bromine (2)
CCOC(=O)COc1nc(C)c(Br)c(OC)n1 was read as TSHR ag inconclusive, A488 autofl inactive, A647 fluor 2.3e-09, Resorufin autofl inactive and AID923 2.8%.
`Brc1ccc(OCCOCCN2CCOCC2)cc1` gave TSHR ag 25µM* and AID923 1.6%.

Following part.
Screening O=C(CCn1nnc2ccccc21)N1CCC(O)(c2cccc(F)c2)CC1 returned TSHR ag -7%, A488 autofl inactive, A647 fluor 1e-08, Resorufin autofl inactive and AID923 -3.5%.
Screening COc1cccc(-c2n[nH]c(=S)n2Cc2ccco2)c1OC returned TSHR ag 9%, A488 autofl inactive, A647 fluor 1.2e-08, Resorufin autofl inactive and AID923 0.9%.
`Cc1ccc(S(=O)(=O)N2CCOCC2)cc1C(=O)Nc1ccccn1` gave TSHR ag inconclusive, A488 autofl inactive, A647 fluor 1.5e-09, Resorufin autofl inactive and AID923 0.9%.
Screening O=C(Cn1c(C(=O)NCc2ccco2)cc2sccc21)c1ccccc1 returned A488 autofl inactive, A647 fluor 1.6e-09, Resorufin autofl inactive and AID923 0.8%.
`CSc1nc(N)c(C#N)c(-c2ccc(Cl)cc2)c1C#N` gave TSHR ag -8%, A488 autofl inactive, A647 fluor 3.5e-08, Resorufin autofl inactive and AID923 -0.9%.
`Cc1cccc(CNc2cc(-c3ccc(N(C)C)cc3)ncn2)c1` gave TSHR ag inconclusive, A488 autofl inactive, A647 fluor 4.7e-08, Resorufin autofl inactive and AID923 -1.8%.
Cc1cc(C)n2nc(SCC(=O)Nc3ccc(F)cc3)nc2n1 was read as TSHR ag 2% and AID923 2.8%.
`Cn1c(=O)n(C)c2cc(CNc3ccc(N4CCOCC4)c(C(=O)O)c3)ccc21` gave TSHR ag -1%, A488 autofl inactive, A647 fluor 7.2e-09, Resorufin autofl inactive and AID923 1.3%.
For Cc1c[nH]c(=O)n(CCCN2CCN(c3ccccc3OCC(F)(F)F)CC2)c1=O the results were TSHR ag 11% and AID923 -2.5%.
For CCN(CC)CCN1C(=O)C(=O)/C(=C(/O)c2c(C)[nH]c(C(=O)OC)c2C)C1c1ccccc1OC (centres undefined) the results were TSHR ag -4%, A488 autofl inactive, A647 fluor 2.4e-08, Resorufin autofl inactive and AID923 0.1%.
Screening CSc1nnc2c3c4c(sc3c(=O)n(-c3ccccc3)n12)CC(C)(C)OC4 returned TSHR ag 14%, A488 autofl inactive, A647 fluor 6.1e-09, Resorufin autofl inactive and AID923 0.8%.
COCC(=O)N1CCC2(CC1)CCN(C(=O)Nc1cccc(F)c1)CC2 was read as TSHR ag -3%, A488 autofl inactive, A647 fluor 1.3e-09, Resorufin autofl inactive and AID923 1.4%.
O=C(NCc1ccccc1)c1cc(S(=O)(=O)N2CCC3(CC2)OCCO3)ccc1F was read as TSHR ag 2%, A488 autofl inactive, A647 fluor 1.7e-09, Resorufin autofl inactive and AID923 1.8%.
O=C1c2cccnc2C(O)N1Cc1ccco1 (centres undefined) was read as TSHR ag -4%, A488 autofl inactive, A647 fluor 1e-09, Resorufin autofl inactive and AID923 -0.2%.

Only part of the results is shown; the hit share may differ from the screen's.
